RecA splice inh – Mtb RecA intein splicing inhibition; cell-free RecA intein splicing, fluorescence; AID 2221; P9WHJ3; actives 0.75% (n = 290,000); inhibition, %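 (about 9 µM by stock and volumes)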; in the data active means inhibition above about 30%; inconclusive means no clear call, values can overlap the other calls;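 further: 0% = vehicle wells and 100% = reference inhibitor control wells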
Target sequence (P9WHJ3 whole entry, looked up, canonical isoform): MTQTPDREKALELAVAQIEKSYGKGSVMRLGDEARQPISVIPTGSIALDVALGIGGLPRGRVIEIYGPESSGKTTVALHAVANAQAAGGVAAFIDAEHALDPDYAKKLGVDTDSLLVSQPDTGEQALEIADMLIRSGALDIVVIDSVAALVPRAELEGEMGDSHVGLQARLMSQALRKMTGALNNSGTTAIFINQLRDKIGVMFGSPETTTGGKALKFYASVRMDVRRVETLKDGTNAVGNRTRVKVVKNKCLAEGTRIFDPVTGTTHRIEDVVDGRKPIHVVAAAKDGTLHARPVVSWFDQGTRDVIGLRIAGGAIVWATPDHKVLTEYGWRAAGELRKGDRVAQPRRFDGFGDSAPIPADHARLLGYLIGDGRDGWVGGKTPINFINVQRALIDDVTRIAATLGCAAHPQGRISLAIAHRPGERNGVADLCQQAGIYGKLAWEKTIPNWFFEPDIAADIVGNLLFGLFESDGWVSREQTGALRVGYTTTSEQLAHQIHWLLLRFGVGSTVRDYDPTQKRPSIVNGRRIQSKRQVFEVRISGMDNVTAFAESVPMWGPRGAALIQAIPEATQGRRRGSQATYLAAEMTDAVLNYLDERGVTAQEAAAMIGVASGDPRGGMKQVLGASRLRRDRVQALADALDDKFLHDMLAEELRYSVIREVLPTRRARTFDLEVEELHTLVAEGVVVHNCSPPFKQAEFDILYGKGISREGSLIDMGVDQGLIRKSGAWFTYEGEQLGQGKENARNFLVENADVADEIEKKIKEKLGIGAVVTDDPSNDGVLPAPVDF
Mtb betalactam – beta-lactam sensitization of Mtb H37Rv; inhibition, % at 25 µM; actives 0.27% (n = 330,000); AID 434955; M. tuberculosis H37Rv growth with meropenem, percent inhibition; hits of this screen are not shown here;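 active means about 74% or more and at least 40 points above the plate without the antibiotic, then above 30% in a dose series; inconclusive means first-round hits that could not be retested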;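 further: growth measured after seven days incubation then overnight dye step; 0% = bacteria only wells and 100% = bacteria with antibiotic; twin plates without the antibiotic show which effects depend on it; some results filed as inactive read as strong as hits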
Mtb growth – M. tuberculosis H37Rv growth inhibitors, H37Rv strain (AID 1626). M. tuberculosis H37Rv growth inhibition; higher % means a stronger effect. inhibition, % at 10 µM; hits with a dose series show IC50 in µM. actives 0.95% (n = 220,000);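 active means confirmed in a dose series; inconclusive means inhibition above 80% but not taken into the dose series; inactive means below 80% or under 30% at every dose of the series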;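 further: bacteria incubated seven days before Alamar blue readout; 0% = bacteria only wells and 100% = bacteria with antibiotic wells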
YopH inh – blocks Yersinia enterocolitica YopH tyrosine phosphatase | fluorescence Ex485/Em525 | inhibition, %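 (about 10 µM by stock and volumes)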 | AID 898 | actives 0.16% (n = 140,000);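 active means inhibition of 50% or more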;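 further: controls were vehicle for no effect and minimum signal wells for full effect; inactives centre near -20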
Arbovirus anti – antivirals against arbovirus infection; actives 0.37% (n = 200,000); inhibition, % at 10 µM; AID 1251; arbovirus infection cell-based antiviral screen;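 active means inhibition from about 30%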;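 further: bluetongue infection of BSR cells; cell survival read as ATP light after 72 h; 0% = infected wells without compound and 100% = uninfected wells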
Arbovirus anti repeat – further read-out of Arbovirus anti, marked with its call; inhibition, %; measured here: 10K subset replicate screen; many hits read low in the repeat;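 first of two repeat runs on a subset; 0% = infected and 100% = uninfected wells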
The depositor's hits bear a star; ? = inconclusive; / = no result given. An excerpt; count on the stated rates, not on these rows.

SMILES | RecA splice inh | Mtb betalactam | Mtb growth | YopH inh | Arbovirus anti | others
Cc1ccc(C(=O)N2CCN(C34CC5CC(CC(C5)C3)C4)CC2)o1 | 1.0 | -2 | / | / | /
O=C(CCN1C(=O)C2C3C=CC(C3)C2C1=O)Oc1ccc2ccccc2c1 (configuration not stated) | -1.5 | 93 | 71% | / | 6
Cc1cccc2c(=O)cc(C(F)(F)F)[nH]c12 | -1.5 | 1 | 0% | / | /
Cc1cc(C)c(NC(=O)CSc2nnnn2-c2cccnc2)c(C)c1 | 2.9 | -2 | / | / | /
CN(Cc1ccc(Cl)s1)C(=O)CCl | 43* | 100 | 59% | / | -7
COc1cccc(NC(=O)[C@H](NC(=O)[C@@H]2Cc3ccccc3CN2)c2ccccc2)c1 | 4.5 | 1 | / | / | /
COC(=O)c1ccc(Oc2nc3c(c(=O)n(C)c(=O)n3C)n2CCC(C)C)cc1 | 4.1 | 1 | 7% | 21 | -13
Cc1cccn2c(=O)c3cc(C(=O)NCC(C)C)sc3nc12 | -40 | 4 | / | / | /
O=[N+]([O-])c1ccc2oc(C3CCCCC3)nc2c1 | 0.4 | -2 | 2% | / | -1
Cc1csc(NC(=O)C2CCN(C(=O)c3ccccc3C)CC2)n1 | 0.3 | 12 | -7% | / | -5
CC(=O)Nc1ccc(NS(=O)(=O)c2ccc(C)cc2)cc1[N+](=O)[O-] | 2.3 | -4 | 7% | / | /
COCCn1c(=NC(=O)c2ccco2)sc2cc(C(=O)OC)ccc21 | 1.0 | 1 | -6% | -17 | -6
CC1CC(NC(=O)C2(C)CC2(Cl)Cl)CC(C)(C)C1 (configuration not stated) | 0.4 | -6 | -3% | 1 | 8
Cc1ccccc1Nc1nc(-c2cccnc2)nc2ccccc12 | 1.0 | 1 | / | / | -5
COc1ccc2nc(/N=C(\N)NC(=O)N3c4ccccc4Sc4ccccc43)nc(C)c2c1 | -6.3 | 48 | 28µM* | -28 | -18
CC(=O)c1cccc(OCc2cc(C(=O)NC3CCN(Cc4ccccc4)CC3)no2)c1 | -8.9 | -4 | / | / | /
CCCS(=O)(=O)c1c(S(=O)(=O)CCC)c2cc(CC)ccn2c1C(=O)OC | 1.7 | ? | -4% | -29 | -6
CC(C)COc1cccc(C(=O)Nc2ccc(S(=O)(=O)N3CCOCC3)cc2)c1 | 5.0 | 10 | -2% | -33 | 7
Cc1nn(-c2ccccc2)c2c1C1(C(=O)N3c4c(cccc41)C(C)CC3(C)C)C(C#N)=C(N)O2 (configuration not stated) | 49* | 3 | -1% | -5 | -9
CCSc1nnc(NC(=O)CSc2nc3c(c(=O)n2C)SC(C)C3)s1 (configuration not stated) | 1.4 | 4 | -2% | -14 | 5
CCOc1ccccc1N(CC(=O)Nc1cccc2ccccc12)S(C)(=O)=O | 0.8 | -1 | / | / | /
CCn1c(=NC(=O)c2cccc(N3C(=O)CCC3=O)c2)sc2c(OC)ccc(OC)c21 | 1.3 | 7 | 2% | / | 7
CCCCn1nc2cc(C(=O)NCc3ccccc3OC)ccc2c1OCC | 1.3 | 26 | -6% | 6 | -6
Cc1ccc(CNC(=O)C2c3ccccc3C(=O)N(C)C2c2c[nH]c3ccccc23)o1 (configuration not stated) | 4.1 | 14 | 3% | 4 | 4
COc1ccc(OC)c(C2C(C(=O)c3cccs3)=C(O)C(=O)N2CCN(C)C)c1 (configuration not stated) | -3.7 | -2 | -11% | -31 | 3

New compounds follow
SMILES | RecA splice inh | Mtb betalactam | Mtb growth | YopH inh | Arbovirus anti | others
CCn1c(C(=O)O)c(CC(=O)N(C)c2ccc(OC)cc2OC)c2ccccc21 | 3.3 | 4 | / | / | /
CCOC(=O)C1=C(C)N(CCCCCC(=O)O)C(=O)NC1c1ccc(Br)cc1 (configuration not stated) | 2.3 | -4 | / | / | /
Cc1c(C(=O)Nc2nnc(C(F)(F)F)s2)oc2ccccc12 | 0.8 | 14 | 29% | / | 23 | Arbovirus anti repeat=15
O=C(CCC(=O)N1CCSc2ccccc21)NCc1ccccc1 | 3.2 | -3 | / | / | /
COc1ccc(CNC(=O)C(c2ccncc2)N(C(=O)Cc2cccs2)c2cccnc2)cc1 (configuration not stated) | 0.9 | 4 | -4% | / | /
CC(C)c1nn2c(=O)cc(COc3cccc(NC(=O)c4ccco4)c3)nc2s1 | -2.2 | -5 | / | / | /
Cc1ccc(N2C(=O)CC(n3ccnc3)C2=O)cc1C (configuration not stated) | 2.9 | -2 | 6% | -49 | -1
O=C(Nc1nc(-c2ccc(Cl)cc2)cs1)C1=COCCO1 | -2.4 | 5 | / | / | /
CCOC(=O)c1ccc(NS(=O)(=O)c2ccc(Cl)nc2)cc1 | -2.3 | -1 | 0% | / | 8
COc1cccc(/C=N/n2cncn2)c1OCC#N | -1.6 | 6 | -1% | -18 | 5
COc1ccc(C(C)=O)cc1Cn1c(=O)cc(C)[nH]c1=O | -2.3 | 4 | / | / | /
CCOc1cc(C(=O)N2CCN(c3ccc(C(C)=O)cc3)CC2)cc(OCC)c1OCC | 0.1 | 99 | 59% | -4 | 0
CCOC(=O)N1CCN(C(=O)COc2cccc3c2CCN(CC)C3=O)CC1 | 2.5 | -6 | -3% | / | 9
CC(OC(=O)CN1C(=O)NC2(CCCC2)C1=O)C(=O)c1ccccc1 (configuration not stated) | -4.2 | -3 | / | / | /
CC(C)[C@H](NC(=O)NC1CCCC1)C(=O)O | -2.1 | -12 | 0% | 10 | -2
COc1ccccc1-n1c(SCC(=O)N2CCCC2)nnc1-c1ccccc1 | 0.0 | 79 | 1% | / | /
CC(C)Oc1ccc(C(=O)Nc2ccccc2N2CCCC2)cc1 | 4.4 | 10 | -2% | -7 | -19
CCC(CC)C(=O)Nc1ccc([N+](=O)[O-])cn1 | -0.4 | 0 | 1% | / | 2
O=C(CS(=O)(=O)c1ccc(F)cc1)N1CCN(c2ccccc2)CC1 | -1.4 | -7 | / | / | /
COc1cccc(NC(=O)c2cccnn2)c1 | -2.8 | 8 | / | / | /
O=C(COc1ccccc1[N+](=O)[O-])N(Cc1cccc(Br)c1)C1CCS(=O)(=O)C1 (configuration not stated) | 0.9 | 91 | / | / | /
COc1ccccc1CC(=O)N(Cc1ccccc1)c1ccc(C)cc1 | 20 | 2 | / | / | /
O=C(NCc1nc(-c2ccc(Cl)cc2)no1)c1ccc2c(c1)OCO2 | 3.8 | -12 | / | / | /
COc1cccc(CN(C)C(=O)c2ccc(NC(=O)CC3SC(N4CCCC4)=NC3=O)cc2)c1OC (configuration not stated) | 1.0 | 4 | / | / | /
COCCOc1ccc(C(F)(F)F)cc1Nc1nc2ccccc2o1 | 1.5 | 4 | 12% | -24 | -6

New compounds follow
SMILES | RecA splice inh | Mtb betalactam | Mtb growth | YopH inh | Arbovirus anti | others
CC(Oc1ccccc1)C(=O)N/N=C/c1ccccn1 (configuration not stated) | -0.4 | -5 | -1% | / | -3
COc1cccc(CN2CCN(C(=O)c3cc(-c4ccncc4)nc4ccc(C)cc34)CC2)c1 | 3.0 | 14 | / | / | /
CCOc1ccc(N/C(=N/c2nc(C)cc(C)n2)NC(C)=O)cc1 | 0.1 | 85 | 70% | / | /
Cc1csc(SCC(=O)Nc2sccc2C(N)=O)n1 | 7.4 | 12 | 4% | / | 2
CCN(CC)S(=O)(=O)c1cc(NC(=O)CN2C(=O)NC(C)(c3ccccc3)C2=O)ccc1C (configuration not stated) | 3.4 | -1 | / | / | /
COc1ccc(CNC(=O)CN(Cc2ccccc2F)C(=O)c2csnn2)cc1 | 0.8 | -3 | / | / | /
CCc1ccc(C(=O)/C=C/c2ccc([N+](=O)[O-])o2)cc1 | 5.3 | 100 | -1% | -13 | -31
CNC(=O)c1ccccc1Nc1ccc(SC(F)F)cc1 | 4.1 | 2 | / | / | /
COCC(=O)NC1CCCCCC1 | -0.5 | 0 | 2% | / | /
CCOCCCN(C)C1CCN(C(=O)c2oc3ccccc3c2NC(=O)c2cccc([N+](=O)[O-])c2)CC1 | 4.9 | 1 | / | / | /
COC(=O)C(CCSC)NC(=O)c1cccc([N+](=O)[O-])c1 (configuration not stated) | -3.7 | 2 | -5% | -12 | 3
CCc1ccccc1N1C(=O)c2ccccc2S1(=O)=O | -2.2 | -3 | -1% | -14 | -1
O=C(CSc1nc2ccccc2c(=O)[nH]1)Nc1ccccc1O | 2.9 | 3 | / | / | /
O=C(O)C/C(=C\c1ccc2c(c1)OCO2)c1nc2ccccc2s1 | -3.1 | 3 | / | / | /
CCc1ccc(Nc2nnc(SCC(=O)Nc3cccnc3Cl)s2)cc1 | -0.4 | 97 | 5µM* | -23 | 13
N#Cc1nc(-c2ccc(F)cc2)oc1NCCCn1ccnc1 | 2.7 | -4 | 4% | / | 0
CSc1ccc(C(c2c(C)[nH][nH]c2=O)c2c(C)[nH][nH]c2=O)cc1 | 98* | 7 | / | / | /
COc1ccc(CC(=O)Nc2ccc(C)cc2O)cc1S(=O)(=O)N1CCOCC1 | -2.6 | -5 | / | / | /
NC(=O)N(CCC(=O)O)c1ccccc1 | -3.9 | 0 | -4% | -20 | 5
Cc1ccccc1-c1cccc([C@@H]2C[C@H]3CN(Cc4cccnc4)C(=O)[C@]34CCCN24)c1 | 4.4 | -1 | 8% | / | -6
COc1cccc(-c2nn(-c3ccccc3)cc2CN2CCCO2)c1 | 5.9 | 2 | 11% | / | -11
COc1ccc2oc(C)c(C(=O)c3ccc(C)cc3)c2c1 | 12 | 8 | / | / | /
CN(C)Cc1c(-c2ccc(Cl)cc2)nc2ccc(Cl)cn12 | -1.4 | 8 | 13% | / | 17
CCC1(c2ccccc2)NC(=O)N(CC(=O)N(CC(=O)Nc2ccccc2C(F)(F)F)Cc2ccco2)C1=O (configuration not stated) | 3.0 | -8 | / | / | /
CC(=O)Nc1cccc(C(=O)NCCc2ccco2)c1 | 0.9 | -5 | / | / | /

The listing continues:
SMILES | RecA splice inh | Mtb betalactam | Mtb growth | YopH inh | Arbovirus anti | others
CCOc1ccc(N(CC(=O)NC2CCCCCC2)S(=O)(=O)c2c(C)noc2C)cc1 | / | 1 | -1% | -44 | 1 | Arbovirus anti repeat=-7
CC(=O)N1CCc2cc(Br)cc(S(=O)(=O)NCCCN(C)Cc3ccccc3)c21 | -0.9 | 3 | / | / | /
COc1ccccc1/C=C/c1onc(C)c1S(=O)(=O)N1CCC(C(=O)NC2CCCCCC2)CC1 | 3.1 | 1 | / | / | /
CCOC(=O)C(=CNc1cc(Cl)c(-c2ccco2)c(Cl)c1)C(=O)OCC | 1.7 | 97 | 18% | / | /
Cc1ccc(N(C(=O)c2csnn2)C(C(=O)NC(C)(C)C)c2ccncc2)cc1 (configuration not stated) | 1.7 | 9 | -3% | -40 | 1
CCc1ccc(/C=N/NC(=O)c2c[nH]c3ccccc23)s1 | -0.7 | 2 | 2% | -17 | -10
COc1ccc(C(=O)N/N=C/c2ccc(OC)c(CN3CCN(c4ccc(F)cc4)CC3)c2)cc1 | 0.6 | 3 | 2% | -31 | 10
COc1cc2c(cc1OC)C(c1ccccc1F)NCC2 (configuration not stated) | 1.4 | 2 | / | / | /

A draw from above in order of length of the SMILES, falling:
SMILES | RecA splice inh | Mtb betalactam | Mtb growth | YopH inh | Arbovirus anti | others
CCC1(c2ccccc2)NC(=O)N(CC(=O)N(CC(=O)Nc2ccccc2C(F)(F)F)Cc2ccco2)C1=O (configuration not stated) | 3.0 | -8 | / | / | /
Cc1ccccc1-c1cccc([C@@H]2C[C@H]3CN(Cc4cccnc4)C(=O)[C@]34CCCN24)c1 | 4.4 | -1 | 8% | / | -6
COc1ccccc1/C=C/c1onc(C)c1S(=O)(=O)N1CCC(C(=O)NC2CCCCCC2)CC1 | 3.1 | 1 | / | / | /
CCOc1ccc(N(CC(=O)NC2CCCCCC2)S(=O)(=O)c2c(C)noc2C)cc1 | / | 1 | -1% | -44 | 1 | Arbovirus anti repeat=-7
CC(=O)N1CCc2cc(Br)cc(S(=O)(=O)NCCCN(C)Cc3ccccc3)c21 | -0.9 | 3 | / | / | /
CCOC(=O)C(=CNc1cc(Cl)c(-c2ccco2)c(Cl)c1)C(=O)OCC | 1.7 | 97 | 18% | / | /
COc1cccc(-c2nn(-c3ccccc3)cc2CN2CCCO2)c1 | 5.9 | 2 | 11% | / | -11
CN(C)Cc1c(-c2ccc(Cl)cc2)nc2ccc(Cl)cn12 | -1.4 | 8 | 13% | / | 17
COc1ccc2oc(C)c(C(=O)c3ccc(C)cc3)c2c1 | 12 | 8 | / | / | /
CC(=O)Nc1cccc(C(=O)NCCc2ccco2)c1 | 0.9 | -5 | / | / | /
COc1cc2c(cc1OC)C(c1ccccc1F)NCC2 (configuration not stated) | 1.4 | 2 | / | / | /
